Mtb betalactam: beta-lactam sensitization of Mtb H37Rv; M. tuberculosis H37Rv growth with meropenem, percent inhibition; hits of this screen are not shown here; inhibition, % at 25 µM; actives 0.27% (n = 330,000); AID 434955;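 active = about 74% or more and at least 40 points above the plate without the antibiotic, then above 30% in a dose series; inconclusive = first-round hits that could not be retested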;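 also: growth measured after seven days incubation then overnight dye step; 0% = bacteria only wells and 100% = bacteria with antibiotic; twin plates without the antibiotic show which effects depend on it; some results filed as inactive read as strong as hits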
YopH PTP inh: inhibitors of Yersinia enterocolitica YopH tyrosine phosphatase. fluorescence Ex485/Em525. actives 0.16% (n = 140,000). inhibition, %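 (about 10 µM by stock and volumes)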;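 active = inhibition of 50% or more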;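 also: controls were vehicle for no effect and minimum signal wells for full effect; inactives centre near -20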
RecA splice inh: Mtb RecA intein splicing inhibition; P9WHJ3; cell-free RecA intein splicing, fluorescence; inhibition, %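 (about 9 µM by stock and volumes)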; actives 0.75% (n = 290,000); AID 2221; in the data active = inhibition above about 30%; inconclusive = no clear call, values can overlap the other calls;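 also: 0% = vehicle wells and 100% = reference inhibitor control wells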
Target sequence (P9WHJ3 whole entry, looked up, canonical isoform): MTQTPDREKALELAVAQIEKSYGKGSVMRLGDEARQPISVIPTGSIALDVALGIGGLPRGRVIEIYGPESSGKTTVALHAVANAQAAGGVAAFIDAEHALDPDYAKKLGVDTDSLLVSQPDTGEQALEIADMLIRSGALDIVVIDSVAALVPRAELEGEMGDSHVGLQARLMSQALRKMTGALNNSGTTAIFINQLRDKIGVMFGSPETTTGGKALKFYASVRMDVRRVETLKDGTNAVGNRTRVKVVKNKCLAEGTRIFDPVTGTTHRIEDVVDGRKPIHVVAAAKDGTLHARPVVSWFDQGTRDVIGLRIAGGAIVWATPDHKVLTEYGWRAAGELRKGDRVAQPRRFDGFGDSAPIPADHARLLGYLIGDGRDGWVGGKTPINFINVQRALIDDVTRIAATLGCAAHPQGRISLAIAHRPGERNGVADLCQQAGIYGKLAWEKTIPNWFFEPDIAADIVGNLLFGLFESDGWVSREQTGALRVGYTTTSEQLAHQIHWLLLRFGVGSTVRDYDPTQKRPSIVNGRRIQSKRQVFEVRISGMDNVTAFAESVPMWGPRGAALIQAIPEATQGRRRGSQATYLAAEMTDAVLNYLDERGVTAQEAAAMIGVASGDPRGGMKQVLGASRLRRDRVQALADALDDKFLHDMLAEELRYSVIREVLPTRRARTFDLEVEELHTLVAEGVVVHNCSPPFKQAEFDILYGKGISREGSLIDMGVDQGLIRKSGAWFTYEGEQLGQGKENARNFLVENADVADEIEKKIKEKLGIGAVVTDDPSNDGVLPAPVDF
Mtb growth: M. tuberculosis H37Rv growth inhibitors, H37Rv strain (AID 1626); actives 0.95% (n = 220,000); one-dose inhibition, % at 10 µM; IC50 in µM for titrated hits; M. tuberculosis H37Rv growth inhibition; higher % means a stronger effect;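 active = confirmed in a dose series; inconclusive = inhibition above 80% but not taken into the dose series; inactive = below 80% or under 30% at every dose of the series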;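 also: bacteria incubated seven days before Alamar blue readout; 0% = bacteria only wells and 100% = bacteria with antibiotic wells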
Arbovirus anti: antivirals against arbovirus infection; inhibition, % at 10 µM; actives 0.37% (n = 200,000); arbovirus infection cell-based antiviral screen; AID 1251;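 active = inhibition from about 30%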;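 also: bluetongue infection of BSR cells; cell survival read as ATP light after 72 h; 0% = infected wells without compound and 100% = uninfected wells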
Arbovirus anti repeat: recorded beside Arbovirus anti, whose call it bears; inhibition, %; measured here: 10K subset replicate screen; many hits read low in the repeat;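 first of two repeat runs on a subset; 0% = infected and 100% = uninfected wells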
Numbers without * were called inactive; ? = inconclusive; nt = not tested or not shown. A portion of the library; the hit share may differ from the screen's.

SMILES	Mtb betalactam	YopH PTP inh	RecA splice inh	Mtb growth	Arbovirus anti	others
CCC(C)NC(=O)Cn1cc2c(n1)CCC(C)C2 (configuration not stated)	0	-7	-0.3	-4%	2	Arbovirus anti repeat=-1
Cc1ccc2nc(C3CCCCC3)[nH]c2c1	62	nt	0.2	nt	nt
COc1ccc(Nc2nc(C)cc(C)c2C(N)=O)c(OC)c1	7	14	-0.4	-11%	-2
O=c1cc(CN2CCN(c3ccc(F)cc3)CC2)nc2sccn12	-6	22	-3.0	-9%	3
CCc1ccc(N2CN=c3s/c(=C\c4ccccc4)c(=O)n3C2)cc1	94	nt	0.4	19%	nt
O=S(=O)(/C=C/c1ccccc1)NC1CCCCCCC1	0	-30	3.6	4%	6
CCc1ccccc1NC(=O)CNCc1ccccc1	-3	nt	8.0	-2%	-4
CCCCC(c1nnnn1CC1CCCO1)N1CCN(c2ccccc2)CC1 (configuration not stated)	4	nt	-1.0	-3%	8
CN(C)S(=O)(=O)c1ccc(N2CCCC2)c(C(=O)OCC(=O)N2CCN(c3ccccc3)CC2)c1	1	nt	1.8	nt	nt
Clc1ccc(COn2ccnc2)cc1Cl	nt	nt	1.5	10%	1
COc1ccccc1-c1ccc(Nc2cccc(C(F)(F)F)c2)nn1	2	-16	-3.3	-9%	-6
CCOC(=O)N1CCN(S(=O)(=O)c2cc(OCC(N)=O)c(C)cc2Cl)CC1	-1	-31	-0.2	4%	2

The final seven records of the part above come first, to join the parts:
SMILES	Mtb betalactam	YopH PTP inh	RecA splice inh	Mtb growth	Arbovirus anti	others
O=S(=O)(/C=C/c1ccccc1)NC1CCCCCCC1	0	-30	3.6	4%	6
CCc1ccccc1NC(=O)CNCc1ccccc1	-3	nt	8.0	-2%	-4
CCCCC(c1nnnn1CC1CCCO1)N1CCN(c2ccccc2)CC1 (configuration not stated)	4	nt	-1.0	-3%	8
CN(C)S(=O)(=O)c1ccc(N2CCCC2)c(C(=O)OCC(=O)N2CCN(c3ccccc3)CC2)c1	1	nt	1.8	nt	nt
Clc1ccc(COn2ccnc2)cc1Cl	nt	nt	1.5	10%	1
COc1ccccc1-c1ccc(Nc2cccc(C(F)(F)F)c2)nn1	2	-16	-3.3	-9%	-6
CCOC(=O)N1CCN(S(=O)(=O)c2cc(OCC(N)=O)c(C)cc2Cl)CC1	-1	-31	-0.2	4%	2
N#Cc1nc(-c2cccs2)oc1NCCc1ccccc1	86	5	11	2µM*	-6
Cn1c(SCC(=O)NC2CC2)nnc1-c1ccccn1	-5	nt	-1.7	nt	nt
CC(=O)Nc1ccc(OCC(O)CN2CCN(S(=O)(=O)c3ccc(NC(C)=O)cc3)CC2)cc1 (configuration not stated)	-3	-22	0.2	-1%	6
CCC1CN(C(=O)NCc2cccc(OC)c2)c2ccccc2O1 (configuration not stated)	3	nt	2.7	nt	nt
CC(C)C(=O)N1CCN(c2ccc([N+](=O)[O-])c(NC(C)c3ccccc3)c2)CC1 (configuration not stated)	4	-23	3.4	10%	23
CCc1nccn1CCC(=O)NC1CCCc2c1cnn2-c1ccc(F)cc1F (configuration not stated)	-3	nt	-0.9	nt	nt
COC(=O)c1cc(S(=O)(=O)N2CCCC2)c(Cl)cc1Cl	2	nt	-2.6	nt	nt
COc1ccc(-c2nc3cnccn3c2NCc2ccccc2)cc1SC1CCCCC1	57	nt	-121	nt	nt
COc1ccc(CCNC(=O)C2CCCN2C(=O)Nc2cccc(OC)c2)cc1 (configuration not stated)	-26	nt	2.7	nt	nt
Cc1ccc(NC(=O)N2CCN(Cc3ccc4c(c3)OCO4)CC2)cc1	-2	-35	-0.6	-1%	4
Cn1c(SCC(=O)Nc2ccc(C(N)=O)cc2)nc2c(c1=O)SCC2	-1	nt	-1.2	nt	nt
COc1ccc(CC(=O)OCC(=O)N(C)C2CCS(=O)(=O)C2)cc1OC (configuration not stated)	-6	nt	4.2	nt	nt
C=CCNC(=O)c1c(Br)cnn1-c1ccc(C)cc1	2	nt	nt	10%	-2
COc1cc(Cl)c(C)cc1NC(=O)CSCC#N	-4	-8	0.8	1%	2
Cc1ccc(OCc2cc(C(=O)NCCc3cccnc3)no2)cc1C	5	nt	1.8	nt	nt
Cc1cc(NC(=O)c2ccc(Cl)cc2)n(-c2ccccc2)n1	0	nt	1.4	nt	nt
CCCCCCCCCCC[C@@H](C[C@@H]1OC(=O)[C@H]1CCCCCC)OC(=O)[C@H](CC(C)C)NC=O	100	nt	5.3	?	-20
CC(C)(C)c1cc(-c2ccccc2)no1	-4	nt	0.7	11%	nt
Cc1nnc(SCC2CCCO2)n1-c1ccccc1 (configuration not stated)	-8	-2	-0.3	-5%	7
CC(=O)Nc1ccc(-c2ccnc(-c3ccc(NC(C)=O)cc3)n2)cc1	9	nt	0.1	-5%	-10
O=C(O)C1CCCN1C(=O)Nc1ccc(F)cc1 (configuration not stated)	-5	-1	-2.7	1%	7
CN(CC(O)COCc1cccs1)C1CCCCC1 (configuration not stated)	-18	-46	-4.2	-1%	1
NS(=O)(=O)c1ccc(NC(=S)Nc2ccc(F)c(F)c2)cc1	1	-13	1.7	-5%	25
Cc1ccc([C@@H]2[C@@H]3C(=O)N(C)C(=O)[C@@H]3[C@]3(Cc4ccccc4)C(=O)N(CCO)CC(=O)N23)o1	-5	nt	2.4	nt	nt
CN(C)C(CNc1ccc(C(F)(F)F)cc1[N+](=O)[O-])c1ccccc1 (configuration not stated)	9	nt	4.6	nt	nt
CCOC(=O)N1CCN(S(=O)(=O)c2ccc(C(=O)N(CCCN(C)C)c3nc4ccc(CC)cc4s3)cc2)CC1	94	nt	0.9	nt	nt
CCOc1ccccc1NC(=O)CSc1nnc(Cc2ccc(OC)cc2)c(=O)n1N	-8	nt	3.3	nt	nt
CCN(CC)C(=O)c1cccc(C)c1	4	nt	2.4	nt	nt
COc1ccc(CN(CC(=O)NC2CCCC2)C(=O)c2csnn2)cc1	-2	nt	4.3	nt	nt
CC(CN1CCN(C/C=C/c2ccccc2)CC1)c1ccccc1 (configuration not stated)	-4	nt	1.7	nt	nt
Cc1cc(C)n2nc(C(=O)OCC(=O)c3c[nH]c4ccccc34)nc2n1	0	nt	2.1	-1%	-1
Cn1c(CCN2CCOCC2)nc2cc(NC(=O)COc3ccccc3)ccc21	8	-34	1.1	-5%	2
CCOc1ccc2nc(SC3CC(=O)N(c4ccc(OC)cc4OC)C3=O)sc2c1 (configuration not stated)	17	nt	1.5	18%	1
Brc1cnc(N2CCCC2)nc1N1CCCCC1	5	-29	10	13%	10	Arbovirus anti repeat=6
O=C(CNC(=O)OCc1ccccc1)NC1CCCCNC1=O (configuration not stated)	-1	nt	-1.4	nt	nt
CN(C)S(=O)(=O)c1cccc(N=c2scc(-c3ccc4c(c3)NC(=O)CO4)n2CC2CCCO2)c1 (configuration not stated)	45	-11	9.6	nt	-21
COC(=O)[C@H](CC(C)C)NC(=O)NC1CCCc2ccccc21 (some centres not stated)	47	-6	2.3	-16%	-9
N#Cc1c(N)c(C(=O)c2ccccc2)n2c1CCC2	-15	12	-1.6	-1%	8
CCc1cc(=O)[nH]c(SC/C=C/c2ccccc2)n1	?	nt	1.4	nt	nt
CCN(CC)C(=O)c1cn(CCC#N)nc1-c1ccc(F)cc1	-10	nt	-2.5	3%	5
O=C(CCc1ccc(S(=O)(=O)NCCc2ccccc2)cc1)NCc1ccco1	3	-13	6.7	3%	-1
O=C(Nc1ccccc1)c1ccc(=O)n(Cc2ccc(F)c(F)c2)c1	-5	nt	2.3	6%	-3
Cc1cccc(N2CCN(C(=O)c3cc(=O)[nH]c4ccccc34)CC2)c1C	-2	nt	1.4	-3%	16
CCOC(=O)Cn1c(CN(C)Cc2ccccc2)nc2c1c(=O)n(C)c(=O)n2C	?	-29	-0.5	2%	-1	Arbovirus anti repeat=4
Cn1c(O)c(C(=Nc2ccc(F)cc2)c2ccccc2)c(=O)n(C)c1=O	2	nt	1.8	-18%	nt
COc1ccc2cc(C(=O)C3CCCN(C(=O)c4ccnn4C)C3)ccc2c1 (configuration not stated)	2	nt	0.8	0%	nt
CCOC(=O)c1c(Nc2nc(C)c(C(=O)NC)s2)sc(C)c1C	-6	-22	-1.0	3%	4
O=C(CN1C(=O)C2CC=CCC2C1=O)Nc1ccc(S(=O)(=O)Nc2nccs2)cc1 (configuration not stated)	-9	nt	-0.4	4%	nt
COc1ccc(S(=O)(=O)NC2(C(F)(F)F)NC(=O)N(CCc3ccccc3)C2=O)cc1 (configuration not stated)	2	nt	4.9	nt	nt
CCCc1cc(C(=O)Nc2ccc(C(=O)c3ccc(C)cc3)cc2)n(C)n1	95	nt	0.0	nt	nt
CCc1ccc(-n2c(=S)sc3c(=O)n(-c4ccccc4)c(SCC(=O)O)nc32)cc1	-10	nt	-27	nt	nt
COc1ccc(CN2CCC(CO)(Cc3cccc(C(F)(F)F)c3)CC2)cc1Cn1cccn1	32	nt	1.0	-5%	-28
CCOC(=O)c1nnn(CC(=O)N2N=C(c3ccc(Cl)cc3)CC2c2ccccc2)c1C(=O)OCC (configuration not stated)	0	-30	-0.9	-5%	-11
CN1CCCN(Cc2ccc(Cl)cc2Cl)CC1	-3	-26	5.7	-9%	-12
CN(C)c1nc(Oc2ccc(=O)n(C)n2)nc(N2CCOCC2)n1	-2	-33	-0.2	-5%	2
C=CCC(=O)OCC(=O)Nc1ccc(Cl)cn1	-2	-21	1.9	0%	-16
CCC(Sc1nc(=O)cc(N)n1CCc1ccccc1)C(=O)Nc1cc(C)on1 (configuration not stated)	-3	-25	14	-6%	2	Arbovirus anti repeat=3
COc1cc(NC(=O)C2CCCN2S(=O)(=O)c2ccc3c(c2)CCC(=O)N3)cc(OC)c1 (configuration not stated)	-4	-3	nt	-6%	4	Arbovirus anti repeat=6
Cc1ccc(C)c(NC(=S)N(C)CCc2ccccn2)c1	2	-18	1.6	2%	-1
O=c1oc(-c2ccc([N+](=O)[O-])cc2)nc2ccccc12	33	nt	3.4	6%	17

Other entries follow.
SMILES	Mtb betalactam	YopH PTP inh	RecA splice inh	Mtb growth	Arbovirus anti	others
CCOc1ccc(C(=O)CCC(=O)NNC(=O)c2ccncc2)cc1	98	nt	2.8	nt	nt
O=C(Cc1ccccc1)Nn1c(-c2ccccc2F)nc2ccccc2c1=O	1	nt	-0.1	2%	-3
Cc1ccccc1-c1cc(C(=O)N/N=C/c2cccnc2)c2ccccc2n1	24	nt	-2.2	nt	nt
Cc1ccc(C2C3=C(CCCC3=O)Nc3c2c(C)nn3-c2ccccn2)o1 (configuration not stated)	-5	nt	1.1	-5%	-7
Cc1ccc(-c2csc3ncn(CC(=O)OC(C)C)c(=O)c23)cc1	21	nt	0.9	nt	nt
CCOC(=O)c1ccc(NC(=O)CSc2nnc(COc3ccccc3OC)n2C)cc1	63	-4	-3.4	>100µM*	7
CCOC(=O)C1CCN(c2ncnc3c2oc2ccccc23)CC1	1	-54	3.3	1%	18
Nc1cnc(-c2ccccc2)nc1Cl	95	-17	7.1	7.3µM*	-3
CCOc1ccc(C2C(C(=O)c3ccco3)=C(O)C(=O)N2CCN2CCOCC2)cc1OCC (configuration not stated)	-3	nt	2.2	nt	nt
CCOC(=O)c1c(NC(=O)c2ccc(Cl)cc2)csc1C	12	-20	3.8	0%	-10
CC(=O)NCCC(=O)Nc1cc(S(=O)(=O)Nc2ccc(Cl)cc2)ccc1N1CCCC1	5	nt	-4.6	nt	nt
COc1ccccc1N1CC=C(c2cccc([N+](=O)[O-])c2)NC1=O	-7	nt	0.9	0%	nt
O=C(CSc1nc2ccccc2nc1N1CCOCC1)Nc1ccccc1F	1	nt	3.5	nt	nt
COCCCN1C(=O)/C(=C\c2cccs2)C(C(=O)OC)=C1C	-5	nt	-5.3	0%	-8
Cc1ccc(C(C)C)c(OCC(=O)NNC(=O)C(C(C)C)N2C(=O)c3ccccc3C2=O)c1 (configuration not stated)	1	-48	7.2	3%	-1
O=C(CNC(=O)c1ccc(Br)o1)Nc1cccc(-c2cnc3ccccc3n2)c1	-5	-110	-1.4	7%	-10
CCCNCc1cc(OC)c(OCC(=O)NCCc2ccccc2)cc1Br	-9	-29	0.3	-8%	-7
Cc1ccc(C(=O)NCC(=O)OCc2nnc(-c3ccccc3)o2)cc1	?	nt	2.8	nt	nt
Cn1c(C(=O)N2CCC3(CC2)OCCO3)cc2c(=O)n(C)c3ccccc3c21	-4	-39	nt	-9%	2
C=CCN1C(=O)c2ccc(C(=O)NCC(c3ccccc3)N(C)C)cc2C1=O (configuration not stated)	-8	nt	0.8	nt	nt
CC1=NNC(=O)C1CC(=O)N/N=C/c1sccc1C (configuration not stated)	-6	nt	1.3	6%	nt

Source: PubChem (several laboratories)
